Compound activity as filed in PubChem.
GIV-Gai inh = blocks GIV peptide binding to rat Galpha-i3 | percent of control (FP), % (concentration not given with the values) | actives 0.42% (n = 210,000) | AID 1224905 | Galpha-i3/FITC-GIV peptide fluorescence polarization, 90 min; active compounds read low; scaled: aluminum fluoride 0%, vehicle 100%;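 active means replicate mean at 85% of control or lower, very high polarization wells dropped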;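 further: wells of about 15 µL received 100 nL stock; the first replicate is given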
Target sequence (P08753 whole entry, looked up): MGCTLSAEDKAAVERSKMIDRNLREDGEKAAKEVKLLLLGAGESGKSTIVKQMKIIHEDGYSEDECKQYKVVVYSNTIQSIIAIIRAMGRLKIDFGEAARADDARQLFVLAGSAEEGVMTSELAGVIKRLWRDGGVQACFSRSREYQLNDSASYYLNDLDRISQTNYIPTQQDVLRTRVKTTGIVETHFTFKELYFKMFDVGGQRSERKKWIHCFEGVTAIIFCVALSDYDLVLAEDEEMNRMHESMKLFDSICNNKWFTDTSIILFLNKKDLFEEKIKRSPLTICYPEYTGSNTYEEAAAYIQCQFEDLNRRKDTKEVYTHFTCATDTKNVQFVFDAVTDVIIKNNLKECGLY
Sa growth 42C = blocks Staphylococcus aureus growth. actives 0.53% (n = 170,000). S. aureus RN4220 growth, OD600, 20 h, 42 °C; active compounds read low. relative growth, % (no concentration beside the values);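 active means growth at 42 °C up to 50% and 20 or more points under that at 30 °C, or under 10% at both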;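 further: 300 nL library stock went into each well; scaled to the means of positive and negative controls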
HCMV NEC inh = disrupts HCMV UL50-UL53 complex binding. HTRF UL50-UL53 interaction, normalized percent inhibition. inhibition, % (concentration not given with the values). actives 0.15% (n = 190,000);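 active means both replicates at 50% or more, plus weaker picks with an unusually low signal ratio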;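 further: stock transfer was 100 nL into about 20 µL; 0% = negative control wells and 100% = wells with untagged competitor protein; inactives centre near -12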
Sa growth 42C second temp = recorded beside Sa growth 42C, whose call it bears; relative growth, %; measured here: growth at 30 °C;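 optical density after 20 h as mean of two plates; 100% = untreated growth and lower means inhibition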
An asterisk follows results filed as active; x = not tested or not shown. Not a hit list, and some 0.85% of all compounds hit somewhere here.

canonical_smiles	GIV-Gai inh	Sa growth 42C	Sa growth 42C second temp	HCMV NEC inh
CCCS(=O)(=O)N1CCC(C(=O)NC(C)C)CC1	101	99	98	3
COc1ccc(Cn2cc(C(=O)c3ccc(OC)cc3)c(=O)c3cc4c(cc32)OCCO4)cc1	103	103	82	-6
COc1cccc(CNn2c(-c3cc(OC)c(OC)c(OC)c3)nc3ccccc3c2=O)c1O	98	x	x	-20
COc1ccc(-c2noc(C)n2)cc1	106	x	x	13
Cc1ccc(CN2CCCn3nc(C(=O)NCCc4cccc(C)c4)cc3C2=O)cc1	101	88	90	x
CCc1cc(C(=O)Nc2cc(Cl)ccc2O)no1	106	x	x	-29
Cc1nc2nc(-c3ccccc3)nn2c(C)c1CC(=O)N1CCCCC1C (stereo not given)	106	x	x	-23
COc1ccc(C2CC(C(F)(F)F)n3nc(C(=O)Nc4ccc(C(C)O)cc4)c(Cl)c3N2)cc1OC (stereo not given)	92	x	x	-20
OCCN1CN(Cc2cccc(Cl)c2)Cn2c1nc1ccccc12	x	99	91	2
Cc1nn2c(-c3ccccc3)cc(-c3ccccc3)nc2c1-c1ccc(Cl)cc1	99	110	84	-18
COc1ccc(-c2noc(CC(=O)N3CCCCCC3)n2)cc1	110	107	91	x
CCc1ccc(-n2nc(C)c3c(C)cc(=O)n(CC(=O)Nc4ccc(F)cc4C)c32)cc1	99	88	93	x
Cc1ccc(NCc2ccccc2)cc1	x	106	94	-9
CCN1CCN(c2nc3c(c(=O)n(C)c(=O)n3C)n2Cc2ccc(Br)cc2)CC1	103	x	x	-24
COC(=O)c1ccc(C2NC(=O)NC(=O)N2)cc1	x	89	89	9
O=c1oc2c3c(ccc2c2ccccc12)OCN(Cc1ccc(Cl)cc1)C3	101	106	87	2
c1csc(-c2csc(-c3ccc4c(c3)OCCO4)n2)c1	106	63	58	-7
O=C(Nc1ccc(Br)cc1F)C1CCC1	x	99	102	17
CCCCOc1ccccc1NC(=O)CC1Sc2ccccc2NC1=O (stereo not given)	111	107	100	-13
O=C(CSc1nnc(-c2ccc3c(c2)OCO3)o1)OCCN1C(=O)c2ccccc2C1=O	x	74	88	-21

Rewritten field by field: part of the list above.
Cc1ccc(NCc2ccccc2)cc1
  GIV-Gai inh: x	Sa growth 42C: 106	Sa growth 42C second temp: 94	HCMV NEC inh: -9

CCN1CCN(c2nc3c(c(=O)n(C)c(=O)n3C)n2Cc2ccc(Br)cc2)CC1
  GIV-Gai inh: 103	Sa growth 42C: x	Sa growth 42C second temp: x	HCMV NEC inh: -24

COC(=O)c1ccc(C2NC(=O)NC(=O)N2)cc1
  GIV-Gai inh: x	Sa growth 42C: 89	Sa growth 42C second temp: 89	HCMV NEC inh: 9

O=c1oc2c3c(ccc2c2ccccc12)OCN(Cc1ccc(Cl)cc1)C3
  GIV-Gai inh: 101	Sa growth 42C: 106	Sa growth 42C second temp: 87	HCMV NEC inh: 2

Following part:
canonical_smiles	GIV-Gai inh	Sa growth 42C	Sa growth 42C second temp	HCMV NEC inh
Cc1noc(/C=C/N2CCOCC2)c1S(=O)(=O)N(C)CCc1ccc(Cl)cc1	103	102	102	8
O=C(CNCC1(N2CCOCC2)CCCCC1)Nc1ccc(Cl)cc1	x	111	94	-8
Cc1ccc(S(=O)(=O)N(CC(=O)Nc2ccc(F)cc2F)Cc2ccc(F)cc2)cc1	103	105	93	-3
COc1ccccc1-c1cc(=O)c2ccccc2o1	x	91	80	-10
COc1ccc(-n2c(=O)[nH]c3cc(C(=O)NCCc4ccc(Cl)cc4)ccc3c2=O)cc1OC	105	106	84	-10
Cc1cc(C)c(Nc2nc3ccccc3n3c(C)nnc23)c(C)c1	104	120	93	-1
CCOc1ccc(NC(=O)Cn2cnc3c(oc4ccccc43)c2=O)cc1	109	126	90	x
Cc1[nH]c(C)c(S(=O)(=O)NCCc2ccc(S(N)(=O)=O)cc2)c1C(=O)N1CCCC1	100	x	x	-10
CCN(CC)CCSc1nc(O)c(C2CCCCC2)c(=O)[nH]1	102	90	92	-15
COc1ccc2ncc(C(=O)c3ccc(C)c(C)c3)c(N3CCOCC3)c2c1	103	107	77	-10
CSc1nnc2c(n1)OC(C)N(C(C)=O)c1ccccc1-2 (stereo not given)	100	97	90	x
CC1NC(=S)N(Cc2ccccc2)C1=O (stereo not given)	x	65	73	-3
Cc1ccc(C(=O)c2c(NC(=O)c3ccncc3)sc3c2CCCC3)cc1	x	96	91	-14
Cc1nn(C)c(C)c1/C=C/C(=O)C(C)(C)C	x	106	83	-13
Cc1ccc2nc(SCC(=O)NCc3ccco3)c(C)cc2c1	101	105	95	-14
O=C(Oc1ccc2ccccc2c1CN1CCOCC1)c1cc(=O)[nH]c2ccccc12	x	85	83	-35
N#Cc1ccc(OCC(O)CNC23CC4CC(CC(C4)C2)C3)cc1 (stereo not given)	x	98	93	4
O=C(NNc1nc2cc3c(cc2s1)OCO3)c1ccccc1	105	95	89	8
Cc1ccc(C=Nc2cccc3nsnc23)c(O)c1	101	99	105	-33
O=C(O)CC(c1ccc(Cl)cc1)N1C(=O)CCC1=O (stereo not given)	x	94	87	-8

One compound at a time, from the list above. Order of screens: GIV-Gai inh, Sa growth 42C, Sa growth 42C second temp, HCMV NEC inh
Results for `CSc1nnc2c(n1)OC(C)N(C(C)=O)c1ccccc1-2` (stereo not given) : 100, 97, 90, x
Results for `CCOc1ccc(NC(=O)Cn2cnc3c(oc4ccccc43)c2=O)cc1` : 109, 126, 90, x
Results for `Cc1noc(/C=C/N2CCOCC2)c1S(=O)(=O)N(C)CCc1ccc(Cl)cc1` : 103, 102, 102, 8
Results for `Cc1ccc(C=Nc2cccc3nsnc23)c(O)c1` : 101, 99, 105, -33

Other compounds:
canonical_smiles	GIV-Gai inh	Sa growth 42C	Sa growth 42C second temp	HCMV NEC inh
Cc1nn2c(=O)cc(CSc3nc4ccccc4[nH]3)nc2s1	104	82	83	x
CCc1ccccc1NC(=O)Cn1c(=O)n(CC2CCC(C(=O)NCCc3ccccc3)CC2)c(=O)c2ccccc21 (stereo not given)	102	91	94	-32
CCc1ccc(NC(=O)c2ccc(F)c(S(=O)(=O)NCc3ccc(Cl)c(Cl)c3)c2)cc1	110	116	100	x
Cc1ccc(C(=O)Cn2nc3n(CC(C)C)c(=O)c4ccc(C(=O)NCC(C)C)cc4n3c2=O)c(C)c1	102	x	x	-28
O=C(CCCCl)NC(c1ccccc1)c1ccccc1	94	93	86	-11
Nc1nnc(SCCN2C(=O)c3ccccc3S2(=O)=O)s1	106	108	101	13
COc1ccc2c(c1)CCc1c-2n[nH]c1C(=O)Nc1cccc2nsnc12	104	x	x	17
Cc1ccc(-c2c(C(F)(F)F)nn3c(N4CCN(C)CC4)cc(C)nc23)cc1	97	x	x	-17
COc1ccc(-c2nnc(Nc3ccc4c(c3)ncn4C)c3ccccc23)cc1	98	x	x	-77
COc1cc(CSc2nnc3n2CCN3c2ccc(F)cc2)cc(OC)c1	101	x	x	-35
C=C(C)CNC(=S)Nc1scc(-c2ccsc2)c1C(=O)OCC	x	62	21	-16
Cc1cc(Nc2ccc(Cl)cc2)n2c(nc3ccccc32)c1C#N	105	99	93	x
CC1CCN(Cc2nc3c(c(=O)n(C)c(=O)n3C)n2Cc2ccc(F)cc2)CC1	101	x	x	-16
CCN1CCN(CCCNC(=O)c2cc3c(=O)n(C)c4ccccc4c3s2)CC1	107	100	93	-49
O=C(O)C1CCN(C(=O)C2CCCCC2)CC1	97	93	87	-19
CC1CCCN(C(=O)C(Cc2ccccc2)NS(=O)(=O)c2ccc3c(c2)CCC(=O)N3)C1 (stereo not given)	105	104	90	x
COc1ccc(C(=S)N2CCNCC2)cc1	106	100	95	5
O=C(O)Cn1c2ccccc2c2n[nH]c(=S)nc21	93	94	92	-46
CCc1ccc(-n2nc(CO)c(C(=O)NCc3cccs3)n2)cc1	104	105	92	-15
CN(C(=O)COc1ccc(Br)cc1)C1CCS(=O)(=O)C1 (stereo not given)	x	92	91	5

Structures listed so far that contain two or more sulfur atoms:
canonical_smiles	GIV-Gai inh	Sa growth 42C	Sa growth 42C second temp	HCMV NEC inh
c1csc(-c2csc(-c3ccc4c(c3)OCCO4)n2)c1	106	63	58	-7
Cc1[nH]c(C)c(S(=O)(=O)NCCc2ccc(S(N)(=O)=O)cc2)c1C(=O)N1CCCC1	100	x	x	-10
Cc1nn2c(=O)cc(CSc3nc4ccccc4[nH]3)nc2s1	104	82	83	x
Nc1nnc(SCCN2C(=O)c3ccccc3S2(=O)=O)s1	106	108	101	13
C=C(C)CNC(=S)Nc1scc(-c2ccsc2)c1C(=O)OCC	x	62	21	-16

New compounds follow.
canonical_smiles	GIV-Gai inh	Sa growth 42C	Sa growth 42C second temp	HCMV NEC inh
O=C(Cc1ccccc1F)NCC1COc2ccccc2O1 (stereo not given)	x	99	88	5
CCC(C)NS(=O)(=O)c1ccc(N)cc1 (stereo not given)	107	105	99	-33
COC(=O)c1cc(N2CC(C)(C)C2=O)cc(N2CC(C)(C)C2=O)c1	98	x	x	-12
Cc1cccc(C)c1NS(C)(=O)=O	x	106	89	2
Cn1c(=O)c2sccc2n2c(CCC(=O)N3CCN(c4ccccc4)CC3)nnc12	100	89	101	23
CC(C)c1ccc(S(=O)(=O)Nc2cc(C(=O)O)cnc2N2CCCC2)cc1	122	x	x	-41
COc1ccc(CCNC(=O)c2cc3c(=O)n4ccccc4nc3n2C)cc1	102	94	91	-20
CCc1cccc(NC(=O)CN2CCCN(Cc3cccc(C)c3)S2(=O)=O)c1	101	90	86	x
O=C(c1ccccc1)N(c1ccccc1)c1ccccc1	x	86	109	-3
Cc1oc(C(C)(C)C)cc1C(=O)Nc1ccc(C(C)C)cc1	105	101	99	9
Cc1cnc(/N=C/NO)c(Br)c1	97	105	92	-3
CCNC(=S)N1CCN(C(=O)OCC)CC1	107	107	97	16
CCc1ccc(OCc2n[nH]c(=S)n2CC(C)C)cc1	x	82	87	-2
CCc1oc2ccccc2c1CC1C(=O)Nc2ccccc21 (stereo not given)	102	x	x	-6
COc1cccc2cc(-c3csc(C)n3)c(=O)oc12	102	101	107	-50
O=C(CNCCCN1CCOCC1)Nc1ccc(OC(F)(F)F)cc1	106	87	96	12
CCC(CC)NC(=O)C(C)Nc1nc2ccccc2s1 (stereo not given)	x	95	95	-16
O=C(Nc1ccccc1C(=O)OCC(=O)N1CCCc2ccccc21)c1ccco1	x	93	90	-22
COC(=O)Cc1[nH]n(-c2ccc(F)cc2)c(=O)c1C(C)=NCCc1cnc[nH]1	102	100	75	4
CC(=O)Nc1ccc2c(c1)nc1n2CCN(C2CCCCC2)C1	101	101	90	x

Later entries
canonical_smiles	GIV-Gai inh	Sa growth 42C	Sa growth 42C second temp	HCMV NEC inh
CC1=C(C(=O)Nc2cccc(F)c2)C(c2cccnc2)C2=C(CC(c3ccccc3)CC2=O)N1 (stereo not given)	103	x	x	-10
Nc1nc(NCc2ccccc2)nc(NCc2ccccc2)c1[N+](=O)[O-]	111	x	x	17
CCCCCn1c(=N)n(CCOc2ccccc2)c2ccccc21	99	67	14	-35
CCCN(S(=O)(=O)c1ccc(OCC)cc1)S(=O)(=O)c1cc(OC)ccc1OC	x	65	85	-29
Cc1nnc(SCc2ccc3c(c2)OCO3)s1	99	102	93	-13
CCOc1ccc2c(c1)n(CO)c(=S)n2CO	109	98	80	x
CSc1ncc(Cl)c(C(=O)Nc2c(C(=O)c3ccc(C)c(F)c3)oc3ccccc23)n1	102	106	84	-19
CC(=O)N1c2ccccc2C(=O)C1N(Cc1cccs1)C1CCCC1 (stereo not given)	110	98	79	0
O=C(O)CCCn1ccnc1	106	91	82	16
CCCSc1nnc(CSc2ncccn2)n1-c1ccc(F)cc1	99	91	80	-19
CCOc1ccc(C2CC(=O)Nc3n[nH]c(C)c32)cc1 (stereo not given)	100	x	x	-9
CCc1ccc(C(=O)CSc2nnc(-c3ccncc3)n2C2CC2)s1	x	109	84	-20
O=C(CNC1CC1)NCc1cccs1	105	93	116	18
COc1ccc(Cn2c(SCc3ccc(C(=O)NCc4ccccc4F)cc3)nc3cccnc32)cc1	100	98	85	-30
CCc1ccccc1N(C)C(=O)CCn1c(=S)oc2ccccc21	104	99	87	x
COCCn1c(SCC(=O)NCc2ccccc2)nc2ccccc21	x	100	97	-9
COc1ccc(C)cc1NC(=O)N1CCN(S(=O)(=O)c2ccc3c(ccn3C)c2)CC1	101	100	98	x
Cc1ccc(C2N3CC4(C)CN2CC(C)(C3)C4O)cc1 (stereo not given)	96	x	x	-13
CC(C)NC(=S)NC(=O)c1cccs1	111	108	105	12
COc1ccc(C(N)c2ccccc2)cc1 (stereo not given)	x	72	87	-16
O=C(CSc1ccccc1)N1CCN(S(=O)(=O)c2cccs2)CC1	110	108	104	11
CCCCOc1c(Cl)cc(C(=O)N(Cc2ccc(C)o2)C2CCS(=O)(=O)C2)cc1Cl (stereo not given)	101	94	83	-4
Cc1cc(=O)[nH]c(SCC(=O)NCC2CCCCC2)c1C#N	x	93	85	-17

Sorted by the number under GIV-Gai inh (largest number first): 5 from the list above.
Molecule | GIV-Gai inh | Sa growth 42C | Sa growth 42C second temp
O=C(CSc1ccccc1)N1CCN(S(=O)(=O)c2cccs2)CC1 | 110 | 108 | 104
COc1ccc(-n2c(=O)[nH]c3cc(C(=O)NCCc4ccc(Cl)cc4)ccc3c2=O)cc1OC | 105 | 106 | 84
Cc1nn2c(=O)cc(CSc3nc4ccccc4[nH]3)nc2s1 | 104 | 82 | 83
Cc1ccc(C(=O)Cn2nc3n(CC(C)C)c(=O)c4ccc(C(=O)NCC(C)C)cc4n3c2=O)c(C)c1 | 102 | x | x
CCCSc1nnc(CSc2ncccn2)n1-c1ccc(F)cc1 | 99 | 91 | 80
